HNF4A DNA FP – change in binding of human HNF4 alpha to DNA; HNF4a-FITC DNA binding, fluorescence polarization, 1 h; 360,000 compounds, 0.3% hits; activity change, % at 10 µM; P41235; in the data active = activity change above about 30%, passing the limit was not always enough;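 also: controls were the assay level and a saturating level of protein; the project sought stronger binding though the title names inhibitors; some compounds called inactive have numbers as strong as hits; positive values seem to mean higher polarization but the record does not say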
ALR H2O2 inh – inhibitors of human sulfhydryl oxidase ALR; AID 485317; P55789; 290,000 compounds, 3.8% hits; purified ALR, DTT oxidation, H2O2 HRP-luminol luminescence; inhibition, % (no concentration beside the values);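 active = mean and each replicate at 75% or more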;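 also: stock transfer was 7.5 nL into about 7.5 µL; 0% = neutral wells and 100% = wells with inactivated enzyme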
FGF22 binding – shifts melting point of recombinant human FGF22. recombinant FGF22 thermal shift, SYPRO orange fluorescence; percent of sucrose octasulfate shift, DMSO zero. calls only at 9.99 µM. 340,000 compounds, 1.5% hits. AID 651658;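 active = melting point raised past a set limit in the mean and every replicate; three in four hits are not shown here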
Target sequence (Q9HCT0 whole entry, looked up): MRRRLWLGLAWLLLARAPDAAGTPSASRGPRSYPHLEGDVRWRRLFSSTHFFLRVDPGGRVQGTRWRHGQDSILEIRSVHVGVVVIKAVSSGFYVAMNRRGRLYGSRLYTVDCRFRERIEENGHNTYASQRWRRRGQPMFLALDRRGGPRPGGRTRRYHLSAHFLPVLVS
B2AR ag – human beta-2 adrenergic receptor agonism by FAP | Am2.2-beta2AR cells, FAP receptor internalization, flow cytometry; reference of the scale not given here | AID 504454 | 340,000 compounds, 0.43% hits | response, % (concentration not given with the values);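 active = response above a set limit, near 3 SD of response in nonfluorescent compounds, cut at about 42% in these data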;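 also: stock transfer was 100 nL into about 11 µL; a reference agonist was the positive control; negative values mostly stem from fluorescent compounds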
Target sequence (P07550 whole entry, looked up): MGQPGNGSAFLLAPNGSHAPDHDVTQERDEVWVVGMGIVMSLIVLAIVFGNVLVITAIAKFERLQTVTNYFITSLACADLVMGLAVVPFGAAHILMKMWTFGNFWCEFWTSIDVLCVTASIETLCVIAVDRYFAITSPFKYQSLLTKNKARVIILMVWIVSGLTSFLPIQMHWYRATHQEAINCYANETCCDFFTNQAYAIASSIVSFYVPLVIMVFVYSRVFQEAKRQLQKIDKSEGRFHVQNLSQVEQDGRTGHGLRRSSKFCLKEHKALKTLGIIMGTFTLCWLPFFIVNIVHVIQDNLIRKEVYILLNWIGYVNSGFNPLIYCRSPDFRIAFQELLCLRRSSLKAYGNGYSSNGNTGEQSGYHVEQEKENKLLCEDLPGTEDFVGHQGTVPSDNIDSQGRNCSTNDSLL
Ecoli growth – E. coli growth inhibition; Escherichia coli growth, OD600, 23 h; active compounds read low; OD600 absorbance (test concentration not listed); 330,000 compounds, 0.21% hits;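 active = OD600 absorbance below the run mean of sample wells minus 3.6 SD, in any replicate, cut at about 0.56 in these data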;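 also: stock transfer was 300 nL into about 60 µL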
LANA-H2B inh – blocks KSHV LANA binding to histone H2A/H2B; Q9QR71; cell-free LANA-H2A/H2B peptide, fluorescence polarization; inhibition, % (concentration not given with the values); 320,000 compounds, 0.6% hits; AID 2629; in the data active = inhibition mostly above about 10%, no sharp cut-off; inactive = mostly below about 6.7%;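 also: stock transfer was 7.5 nL into about 10 µL; 0% = median of vehicle wells and 100% = median of positive control wells; one replicate is shown; the record names a cut of 25% in any replicate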
UCH37 inh – human UCH37 deubiquitinating enzyme inhibition; Q9Y5K5; purified proteasome/UCH37, Ub-AMC cleavage fluorescence; inhibition, % (no concentration beside the values); 330,000 compounds, 0.33% hits; AID 588478;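 active = mean of two replicates above 20%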;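 also: 0% = compound-free wells with enzyme and 100% = wells lacking proteasome; stock transfer was 100 nL into about 20 µL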
Target sequence (Q9Y5K5 whole entry, looked up): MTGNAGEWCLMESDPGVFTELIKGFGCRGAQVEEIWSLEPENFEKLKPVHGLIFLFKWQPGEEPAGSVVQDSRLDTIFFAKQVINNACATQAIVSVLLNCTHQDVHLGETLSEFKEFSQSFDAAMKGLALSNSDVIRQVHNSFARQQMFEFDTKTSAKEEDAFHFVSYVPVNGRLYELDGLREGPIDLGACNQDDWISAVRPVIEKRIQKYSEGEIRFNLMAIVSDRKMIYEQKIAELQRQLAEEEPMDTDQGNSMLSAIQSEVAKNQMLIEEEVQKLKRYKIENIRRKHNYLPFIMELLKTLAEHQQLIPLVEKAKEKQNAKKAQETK
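system = Proteasome-associated human UCH37 deubiquitinase | amount = 0.15 nM proteasome as dispensed | medium = pH 7.4 Tris-HCl (50 mM) with ovalbumin, ATP-MgCl2, DTT | incubation = 30 min preincubation with enzyme, 25 min cleavage at room temperature | detection = AMC fluorescence 355/460 nm | read-out basis = percent inhibition | controls = no-proteasome and no-compound wells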
Numbers without * were called inactive; i = inactive; / = not tested or not shown; + = active, no number. This is a subset; the hit share may differ from the screen's.

Compound	Ecoli growth	B2AR ag	ALR H2O2 inh	UCH37 inh	FGF22 binding	LANA-H2B inh	HNF4A DNA FP
O=C(CCSc1ccc(Cl)cc1)NN=C1CCCCCC1	0.69	3	6	5.0	/	7.7	-0.2
Cc1ccnc(N2CCN(C(=O)CSc3nc4ccccc4nc3N3CCCCC3)CC2)c1	0.77	-3	/	2.4	/	-0.7	0.8
O=C(CCNC(=O)c1ccc(Br)cc1)Nc1cc(Cl)ccc1-n1cncn1	0.7	0	/	2.4	i	6.8	-1.6
CC(C)NC(=O)C1CCCN(S(=O)(=O)c2cccs2)C1 (centres undefined)	0.73	1	-12	3.4	/	-7.8	3.8
CS(=O)(=O)NCCSCc1c(F)cccc1Cl	0.7	-2	-2	1.4	/	4.4	1.0
CN(CC(=O)Nc1ccc(F)cc1[N+](=O)[O-])Cc1ccccc1	0.68	-6	-7	3.8	i	2.3	3.9
CC(NCc1ccc2c(c1)OCO2)C(=O)NC1CCCCC1 (centres undefined)	0.73	3	-14	3.0	i	1.4	-0.3
Cc1nc(S(=O)(=O)c2ccc(Cl)cc2)nc2c1CCC2	0.73	4	-3	-4.5	/	2.6	0.3

More entries
Compound	Ecoli growth	B2AR ag	ALR H2O2 inh	UCH37 inh	FGF22 binding	LANA-H2B inh	HNF4A DNA FP
COc1ccc(C(CNC(=O)c2ccc(OCc3c(C)noc3C)cc2)N2CCCC2)cc1 (centres undefined)	0.66	1	-19	3.7	i	-3.6	1.6
O=C(Nc1cccc(C(F)(F)F)c1)c1c(O)c2ccccc2[nH]c1=O	0.69	-3	1	-1.1	/	3.2	1.1
Cc1c([N+](=O)[O-])c(C(=O)NC2CCCC2)nn1C	0.7	1	/	5.9	i	/	-1.4
Cc1cc(Nc2ccc(F)c(Cl)c2)n2ncnc2n1	0.75	-4	/	3.8	/	-3.1	-1.7
CN(C)C(=O)c1snnc1-c1ccccc1	0.72	-1	0	2.9	/	2.6	0.5
CCOC(=O)c1c(C)[nH]c(=S)c(C#N)c1-c1ccc(OC)cc1	0.71	1	36	6.6	/	3.1	5.0
Cc1ccc(F)cc1NC(=O)N1CCN(C2c3ccccc3-c3ccccc32)CC1	0.66	4	-1	6.4	i	2.4	-0.1
CCCCC(=O)NC(=S)NNC(=O)CC#N	0.68	4	17	1.7	/	-2.2	-2.5

The results go on.
Compound	Ecoli growth	B2AR ag	ALR H2O2 inh	UCH37 inh	FGF22 binding	LANA-H2B inh	HNF4A DNA FP
C=CCOc1ccc(/C=C2/C(=N)N3N=C(CC(=O)N4CCCC4)SC3=NC2=O)cc1OC	0.68	14	99*	3.7	i	1.0	4.3
O=S(=O)(NC1=NCCCCCC1)c1cccs1	0.68	-12	1	0.1	i	-3.6	-3.2
CC(=O)NCCc1ccc(C(=O)COC(=O)C2CCCCC2)cc1	0.65	-1	5	0.9	i	4.4	-2.5
Cc1nc2ccccc2cc1OCc1ccccc1	0.62	-18	2	-1.9	/	-4.2	11
Cc1ccc(C)c(N2C(=O)C3C4C=CC(CC4)C3C2=O)c1 (centres undefined)	0.67	-6	2	3.3	i	5.7	1.6
O=[N+]([O-])c1ccc(/C=N/Nc2nc(NCc3ccccc3)nc(N3CCOCC3)n2)cc1	/	2	-3	/	/	4.3	-2.9
C/C(=N/N1CCN(c2ccccn2)CC1)c1cccc([N+](=O)[O-])c1	/	-13	11	/	i	-0.9	1.3
CCCCn1c(SCC2CCCCO2)nc2cc(S(N)(=O)=O)ccc21 (centres undefined)	0.72	-9	/	5.4	/	-3.3	-0.6

Other results:
Compound	Ecoli growth	B2AR ag	ALR H2O2 inh	UCH37 inh	FGF22 binding	LANA-H2B inh	HNF4A DNA FP
COc1ccc(/C=N/NC(=O)c2ccn[nH]2)cc1COc1ccc([N+](=O)[O-])c(C)c1	/	14	/	/	i	-0.6	0.3
CNC(=S)Nc1ccc2[nH]c(=O)[nH]c2c1	0.68	17	52	0.3	i	-5.1	1.7
NC(=O)c1ccc(NC(=O)COC(=O)c2cc([N+](=O)[O-])ccc2N2CCOCC2)cc1	0.67	-3	-3	7.5	/	-1.2	4.0
O=C(CCCc1ccccc1)NC12CC3CC(CC(C3)C1)C2	0.68	7	1	2.7	i	0.6	-3.7
COc1ccccc1OCc1nnc(SCC(=O)NCc2ccco2)n1-c1ccccc1	0.64	-2	-5	1.1	/	11	-2.1
COc1ccc(C2=NS(=O)(=O)N(C)C(C(=O)Nc3cc(OC)c(OC)c(OC)c3)=C2)cc1	0.63	6	-7	3.6	i	1.1	3.8
CNC(=O)C1CC(=O)N(Cc2ccc3c(c2)OCO3)C(=Nc2ccc(F)cc2)S1 (centres undefined)	0.69	-6	6	2.8	i	-5.2	-0.9
CS(=O)(=O)N(CC(=O)Nc1ccc(C(N)=O)cc1)C1CCCCC1	0.68	1	-4	-0.1	/	0.8	0.3

Following part
Compound	Ecoli growth	B2AR ag	ALR H2O2 inh	UCH37 inh	FGF22 binding	LANA-H2B inh	HNF4A DNA FP
CCNc1nc(OC)nc(Oc2ccc(=O)n(-c3ccccc3)n2)n1	0.69	-1	2	4.0	/	-1.7	5.6
Cc1ccc(S(=O)(=O)N(C)C)cc1NC(=O)COC(=O)c1ccc2c(c1)NC(=O)CS2	0.67	-4	-5	0.6	i	4.1	0.5
O=C(O)c1cccc2sc3cc(Cl)ccc3c(=O)c12	0.68	-8	-3	-63	i	0.3	-0.9
Cc1cccc(C)c1NC(=O)NNC(=O)c1cc(C(C)(C)C)nn1Cc1ccccc1	0.65	-1	7	5.7	i	-0.2	-3.3
Cc1ccc(N2CC(NS(=O)(=O)c3cccnc3)CC2=O)cc1 (centres undefined)	0.63	-4	-1	0.7	i	-3.7	3.5
CC(C)Cn1cnc2c(Sc3c([N+](=O)[O-])ncn3C)nc(N)nc21	0.66	4	/	7.8	i	/	-1.1
O=C(N/N=C/c1cccnc1)c1cc(-c2ccc(Br)cc2)nc2ccccc12	/	-14	-15	/	i	-3.4	-0.4
CCc1cc(=O)oc2cc(OCc3ccc(C(=O)O)o3)ccc12	/	-3	-2	/	i	3.0	-1.0

Additional records follow.
Compound	Ecoli growth	B2AR ag	ALR H2O2 inh	UCH37 inh	FGF22 binding	LANA-H2B inh	HNF4A DNA FP
CCC1C=C(c2ccccc2)C=CN=C1N(CC)CC (centres undefined)	0.72	-3	5	-0.7	i	2.1	3.2
CC(=O)Nc1ccc(C(=O)COC(=O)Cc2ccsc2)c(F)c1	0.67	2	-4	3.4	i	3.0	4.1
O=c1c2ccccc2c(/C=N/NS(=O)(=O)c2ccccc2)c(O)n1-c1ccccn1	/	-26	98*	1.1	i	-3.9	120
COc1cccc(C(=O)Nc2ccc(C(=O)NCC3CCCO3)cc2)c1 (centres undefined)	0.67	3	24	2.9	i	1.2	1.1
Cc1ccc([N+](=O)[O-])cc1S(=O)(=O)NCCc1c(C)[nH]c2ccccc12	0.72	8	65	1.5	/	1.5	1.7
CCOC(=O)C1CCN(C(=O)c2cc(-c3ccncc3)nc3ccccc23)CC1	0.7	16	-2	1.5	i	0.2	-3.6
Cc1ccc(C)c(NC(=O)CN(C)C(=O)c2cc3ccccc3oc2=O)c1	0.69	-4	1	1.0	i	12	0.5
COCCn1c(=O)c2c(nc3n2CC(C)CN3Cc2ccccc2)n(C)c1=O (centres undefined)	0.63	-1	14	1.1	i	-2.3	-2.0

Further compounds follow:
Compound	Ecoli growth	B2AR ag	ALR H2O2 inh	UCH37 inh	FGF22 binding	LANA-H2B inh	HNF4A DNA FP
COc1cccc(-c2csc(N3CCN(C(=O)Nc4ccc(F)cc4)CC3)n2)c1	0.65	20	/	1.6	/	-0.7	1.5
Cc1ccc(N2CCN(S(=O)(=O)N3CCCCC3)CC2)cc1C	0.69	4	3	4.4	i	2.0	1.0
O=C(CCc1nc(-c2ccccc2Cl)no1)Nc1cccnc1	0.68	6	-6	1.0	i	-9.6	0.2
CCOc1ccc(CC2c3cc(OCC)c(OCC)cc3CCN2C(=O)c2cc(OC)c(OC)c(OC)c2)cc1OCC (centres undefined)	0.72	-8	/	1.2	/	-6.1	6.7
COCCN1C(=O)N[C@@H](c2cccc(C(F)(F)F)c2)[C@H](C(C)=O)[C@H]1C	/	-3	0	2.6	/	-0.6	-1.1
COc1ccc(NC(=O)COC(=O)c2ccc3c(c2)OCO3)c(OC)c1	0.69	4	0	0.0	i	-1.8	3.3
Cc1ccc2nc(-c3cccc(N)c3)oc2c1	0.66	1	-6	-171	i	1.9	2.2
COc1ccc(NC(=O)CSc2nc3ccccc3nc2N2CCOCC2)c(OC)c1	0.8	-9	/	1.9	i	3.6	-4.3

(more compounds)
Compound	Ecoli growth	B2AR ag	ALR H2O2 inh	UCH37 inh	FGF22 binding	LANA-H2B inh	HNF4A DNA FP
O=C(c1cc2ccccc2o1)N1CCN(C/C=C/c2ccccc2)CC1	0.64	-2	0	-1.9	i	0.8	2.6
CCOC(=O)C1(CCOC)CCN(Cc2nc(C(C)C)cs2)CC1	0.69	7	-9	0.2	i	2.3	5.1
Cc1ccc(C2=NOC(C)(c3nnc(Cc4ccccc4)o3)C2)cc1 (centres undefined)	0.65	-9	-8	1.0	i	-0.4	-4.2
O=C(Cc1ccsc1)NCc1ccccc1F	0.68	2	-17	-0.4	i	5.6	-0.9
CCOc1ccc(N(C(=O)/C=C/C(=O)Nc2cc(C)on2)C(C(=O)NC2CCCC2)c2ccccc2C)cc1 (centres undefined)	0.65	-7	-9	1.8	i	2.6	-4.0
Cc1cccc(NC(=O)C2CCCN(C(=O)Nc3ccccc3)C2)c1C (centres undefined)	0.67	-1	-6	6.1	/	2.0	1.3
Cc1ccc(C(=O)NCCc2ccccc2)cc1N1CCCC1=O	0.7	8	2	-1.8	/	1.2	-0.9
O=C(NCc1ccc(Cl)cc1)c1n[nH]c([N+](=O)[O-])c1Cl	/	11	12	/	+	-5.4	2.4

Whole records from above.
`CCOc1ccc(N(C(=O)/C=C/C(=O)Nc2cc(C)on2)C(C(=O)NC2CCCC2)c2ccccc2C)cc1` (centres undefined) is listed with Ecoli growth: 0.65; B2AR ag: -7; ALR H2O2 inh: -9; UCH37 inh: 1.8; FGF22 binding: i; LANA-H2B inh: 2.6; HNF4A DNA FP: -4.0
`Cc1cccc(NC(=O)C2CCCN(C(=O)Nc3ccccc3)C2)c1C` (centres undefined) is listed with Ecoli growth: 0.67; B2AR ag: -1; ALR H2O2 inh: -6; UCH37 inh: 6.1; FGF22 binding: /; LANA-H2B inh: 2.0; HNF4A DNA FP: 1.3

The listing continues.
Compound	Ecoli growth	B2AR ag	ALR H2O2 inh	UCH37 inh	FGF22 binding	LANA-H2B inh	HNF4A DNA FP
O=C1CC(N2CCN(c3ccccc3Cl)CC2)C(=O)N1c1ccccc1 (centres undefined)	0.72	1	-8	0.8	/	3.1	-0.2
O=C(NNS(=O)(=O)c1ccc2ccccc2c1)c1cccnc1	0.67	5	37	0.0	/	-1.9	-2.7
CC(C(=O)O)c1cccc(Oc2ccccc2)c1 (centres undefined)	/	-1	/	/	i	/	2.4
N#CC1(NC(=O)COC(=O)CCCN=C2NS(=O)(=O)c3ccccc32)CCCCC1	/	-5	-5	/	i	2.0	2.8
CCOC(=O)c1c(NC(=O)c2ccco2)sc2c1CCCCC2	0.71	2	-5	-112	/	-2.1	-2.9
NC(=Nc1ccccc1)NC(=O)c1nc(Cl)c(N)nc1N	0.69	-10	2	-27	i	-0.2	4.5
C=CCN(c1ccccc1)S(=O)(=O)c1ccc(Cl)c(C(=O)OCC(=O)N(C)C2CCS(=O)(=O)C2)c1 (centres undefined)	0.7	7	0	3.4	i	3.0	-2.2
O=S(=O)(NCC(c1cccnc1)N1CCN(c2ccccc2F)CC1)c1cccs1 (centres undefined)	0.76	-3	/	5.8	i	-0.9	1.6
Cc1ccccc1NC(=O)C1C2/C=C\CCCCC21 (centres undefined)	/	-6	/	4.5	/	/	-3.8
COc1ccc(CCNC(=O)c2ccc(Br)cc2)cc1	0.68	-8	6	-0.6	i	-0.6	1.1
COCC(C)NS(=O)(=O)c1ccccc1 (centres undefined)	0.66	-10	-6	2.5	/	2.0	-1.5
